Vaccinia Venus = qHTS for Stage-Specific Inhibitors of Vaccinia Orthopoxvirus: Venus Reporter Primary qHTS | Vaccinia virus Venus reporter expression, fluorescence | Potency, µM (highest dose often 36.5 µM), inactives show top-dose activity change, negative = inhibition, actives largely listed as inhibitors | 0.46% of 330,000 active; active means well fitted inhibition curve with a large enough effect; inconclusive means small, poorly fitted or top-dose-only effect; inactive means no such curve, though single readings can be large or run the other way; tested in A549 cells; also: nearly all actives have a fitted effect of over 30% in size; inactives centre near -10
Vaccinia mCherry = qHTS for Stage-Specific Inhibitors of Vaccinia Orthopoxvirus: mCherry Reporter Primary qHTS | 0.63% of 310,000 active | AID 720579, 2013 | Potency, µM (doses to about 36.5 µM), for inactives: at the top dose activity change, negative = inhibition, hits mostly inhibitors | Vaccinia virus mCherry reporter infection, fluorescence; about a quarter of the inactives have no number; active = well fitted inhibition curve with a large enough effect; inconclusive = small, poorly fitted or top-dose-only effect; inactive = no such curve, though single readings can be large or run the other way; tested in A549 cells; also: nearly all actives have a fitted effect of over 35% in size; inactives centre near -10
Numbers without * were called inactive; i = inactive; ? = inconclusive; nt = no result given; & = joins results of further samples; [ ] = another dose, or the depositor's remark. % is scaled to controls: 0 for no effect and ±100 for the full control effect; potency is read from the fitted curve at half-maximal effect.

molecule | Vaccinia mCherry | Vaccinia Venus
COc1cccc(NC(=S)N2C3CCCC2CC(NC(=O)C2CC2)C3)c1 (stereo unspecified) | -12% | -9%
Cc1ccc2nc(C)c(C(=O)N/N=C/c3cccs3)cc2c1 | i | -16%
COCCN1Cc2cccc(C(=O)Nc3cc(C)cc(C)c3)c2C1=O | -19% | -16%
O=C(CSc1c2c(nc3ccccc13)CCC2)N1CCCC1 | -10% | -17%
COc1ccc(C(=O)C2CCN(CC(=O)Nc3cc(C)cc(C)c3)CC2)cc1 | ? | -23%
CC/C(C)=N/NC(=S)NCc1ccco1 | -13% | -2%
Cn1cnc(S(=O)(=O)N2CCCCC2c2cc(C(=O)Nc3cccc4c3CCCC4)no2)c1 (stereo unspecified) | 6% | -3%
Fc1ccc(CNCc2ccc(Br)cc2)cc1 | i | -20%
C#CCOCCOCCOCCNc1nc(N2CCN(C(=O)[C@H]([C@@H](C)CC)n3cc(CCCN=C(N)N)nn3)CC2)nc(N2CCN(C(=O)[C@H](CCCCN)n3cc(CCC(=O)O)nn3)CC2)n1 | i | -15%
O=C(O)c1ccc(NC(CSCc2ccc(F)cc2)C(=O)O)c([N+](=O)[O-])c1 (stereo unspecified) | i | -11%
CCCCN(C)C(=O)C1CCN(c2ccc(S(=O)(=O)N3CCOCC3)cc2[N+](=O)[O-])CC1 | -21% | -7%
CCOC(=O)CNC(=O)c1sc2nc(C)cc(C)c2c1N | i | -8%
N#CCc1c(C#N)c(N)nc(N2CCN(S(=O)(=O)c3ccccc3)CC2)c1C#N | nt | -20%
O=C(NCc1ccccc1)c1ccc(CNS(=O)(=O)c2ccc(Br)cc2)cc1 | -13% | -9%
CC(=O)NC(c1cccc(F)c1)c1nc(-c2cccc(C(C)C)c2)cs1 (stereo unspecified) | -2% | -7%
C/C(O)=C(\C#N)c1nc2ccccc2[nH]1 | -16%[1.46 µM] | -24%
O=C(CSc1nnc2c3ccccc3c3ccccc3c2n1)Nc1ccccc1F | i | -1%
COc1ccc(N(C)S(=O)(=O)c2cccc(C(=O)NCc3ccc4c(c3)OCO4)c2)cc1 | i | -15%
COC(=O)C1=C(C)N(Cc2ccco2)C(=O)N[C@H]1c1cccc(C(F)(F)F)c1 | i | -6%
CCCc1nnc(NC(=O)C(CC)Sc2nnc3c4ccccc4n(C)c3n2)s1 (stereo unspecified) | -11% | -8%
COc1cccc(CNC(=O)c2ccc3c(c2)N(Cc2ccc(C(F)(F)F)cc2)C(=O)c2ccccc2S3)c1OC | -15% | -10%
O=C(NC1CCN(Cc2ccccc2)CC1)c1c(F)cccc1F | i | -13%
COc1cccc2c1C(=O)/C(=C\c1ccc(N(C)C)cc1)C2 | -24% | 213%[activator]
O=C1c2ccccc2/C(=C\c2ccc(Br)s2)N1c1ccccc1 | -22% | -19%
CN1CCC2(CC1)C1CN(C)CC=C1C(C#N)=C(N)C2(C#N)C#N (stereo unspecified) | -14% | 9%
O=C(Nc1nnc(N2CCCC2)s1)Nc1cc(F)ccc1F | -1% | -11%
CCCC[C@@H]1CN=C(N)N1CCc1cc(C(F)(F)F)cc(C(F)(F)F)c1 | 11µM* | 10µM*
COc1ccc(NC(=O)c2cc(-c3cc(OC)c(OC)c(OC)c3)nc3ccccc23)cc1OC | -3% | 10%
O=C(NNC(=O)c1ccc(Cl)nc1)c1ccc(Br)cc1 | -18% | 0%
C=C[C@](C)(O)CCC1C(=C)CC(O)C2C(C)(C)CCCC12C (stereo partly specified) | -11% | -9%
O=C(NCc1ccc(S(=O)(=O)Nc2ccccc2Cl)s1)c1ccccc1 | 8% | -27%
CCCCNc1cc(C)nc(N2CCOCC2)n1 | nt | -12%
OC(c1ccccc1)(c1ccccc1)c1ccncc1 | -7% | -20%
COC(=O)C(NC(=O)CCc1c(C)nc2c(-c3ccccc3)c(C)nn2c1C)C(C)C (stereo unspecified) | -2% | -7%
CC(C)NC(=O)c1ccc2nc([C@@H]3O[C@H](CO)[C@H](O)[C@H](O)[C@H]3O)[nH]c2c1 | -15% | 0%
C[C@H](NC(=O)NCc1cccs1)C(=O)O | -5% | -9%
CCOC(=O)c1cnn(-c2ccccc2)c1NC(=O)c1cccs1 | i | -5%
COC(=O)CNC(=O)c1cn(CCC#N)nc1-c1ccc(F)cc1 | -5% | -3%
O=C(c1cccc(S(=O)(=O)N2CCOCC2)c1)N(Cc1nnc(-c2ccccc2Cl)o1)C1CC1 | -1% | -10%
Nc1cc(Cl)nnc1Cl | -6% | 4%
COc1ccc(-c2nn(-c3ccccc3)cc2C(=O)N/N=C/c2ccc([N+](=O)[O-])o2)cc1 | i | 2%
Cn1nc(-c2ccccc2)c(-c2nc(-c3ccccc3Cl)no2)c1Cl | -2% | -13%
CCCn1nnnc1NC(=O)COc1ccc(Br)cc1 | i | 2%
Cc1ccccc1Cn1cc(S(=O)(=O)CC(=O)N2CCCCC2)c2ccccc21 | -12% | -18%
CCN1CCN(C(=S)NC(=O)c2cccc(Br)c2)CC1 | -9% | -11%
CC1(C)CC(=O)CC(=Nc2ccc(C(=O)O)cc2)C1 | nt | -1%
CCOC(=O)c1ccc(N2C(=O)Cc3cc(OCC)c(OCC)cc3C2c2ccccc2)cc1 (stereo unspecified) | 0% | -8%
CCCN1CNc2c(c(=O)[nH]c(=S)n2CCc2c(Cl)cccc2Cl)C1 | i | -11%
ClCCN(CCCl)c1ccc(C=Nc2ccc(/C=C/c3ccnc4ccccc34)cc2)cc1 | -10% | -17%
COc1cc(N(C(C)=O)c2ccc(O)c(C(=O)O)c2)c2ncccc2c1 | i | 4%
O=C(C[C@H]1CC[C@@H]2[C@H](COC[C@H](O)CN2Cc2cccc(C(F)(F)F)c2)O1)NCCc1ccccc1 | ? | ?
Cc1cccc(N2CCN(Cc3nc(-c4cccc(Cl)c4)oc3C)CC2)n1 | -9% | 12%
COc1ccc([C@H]2C(C(=O)O)=C[C@@H](C(C)(C)C)N2S(=O)(=O)c2ccc(C)cc2)cc1OC | -11% | -14%
CCOc1ccc(S(=O)(=O)N(CC)CC(=O)NCc2cccnc2)cc1 | i | -14%
CC(C)Oc1cccc(C(=O)NC(=S)Nc2cccc(NC(=O)c3ccccc3Cl)c2)c1 | -22% | -13%
Cc1ccc(C(=O)Nc2cccc(C(F)(F)F)c2)cc1NC(=O)c1nccn1C | -4%&-12% | -7%&-7%
Cc1cccc(C)c1NC(=O)CN(C)C(=O)c1cccc(S(=O)(=O)N2CCN(c3ccccc3)CC2)c1 | -11% | -25%
CCOC(=O)CSc1nnc(NC(=O)C2CC(=O)N(c3ccc(F)cc3)C2)s1 (stereo unspecified) | -6% | 5%
O=C(Oc1coc(CSc2ncccn2)cc1=O)c1cccs1 | -18% | 10%
CN1CCN(c2ccccc2NC(=O)c2ccc(N3CCOCC3)c([N+](=O)[O-])c2)CC1 | -7% | -3%

The results go on:
molecule | Vaccinia mCherry | Vaccinia Venus
COc1ccc(C=NNC(=O)CCCCC(=O)NN=Cc2ccc(OC)cc2)cc1 | -11% | -5%
CCOc1ccccc1CN1CCc2nc(Nc3ccccc3)ncc2C1 | -9% | -16%
CC1CCCCN1C(=O)COC(=O)C1CCN(S(=O)(=O)c2c(Cl)cccc2Cl)CC1 (stereo unspecified) | -14% | -18%
Cc1ccc(OC(=O)c2cccnc2)cc1 | -2% | -10%
COc1ccc(NC(=O)Nc2ccc3c(c2)C(=O)N([C@H](C)CO)C[C@H](C)[C@@H](CN(C)Cc2ccc(Cl)c(Cl)c2)OCCCC[C@@H](C)O3)cc1 | ? | ?
CCOC(=O)Cc1c(C)nc2c(-c3ccc(Cl)cc3)c(C)[nH]n2c1=O | -3% | -15%
CCCn1c(SCC(=O)Nc2cccc(C)n2)nc2c1c(=O)n(C)c(=O)n2C | 0% | -14%
CN1CCN(S(=O)(=O)c2cccc(C(=O)N(Cc3nnc(-c4ccc(Cl)cc4)o3)C3CC3)c2)CC1 | -14% | -9%
COc1ccc(-n2nc(C(=O)NCC(=O)NCc3cccc(F)c3)c3ccccc3c2=O)cc1Cl | i | -4%
COc1ccc(N(CC(=O)NCc2ccco2)S(=O)(=O)c2ccccc2)cc1 | -12% | -6%
Cc1ccc2cc(F)ccc2n1 | -8% | 2%
CCN(C[C@H]1N[C@@](CC)(C(=O)OC)[C@H]2C(=O)N(C)C(=O)[C@@H]12)S(=O)(=O)c1ccc(F)cc1 | i | ?
CCOC(=O)c1ccc(NC(=O)c2cnc3c(-c4ccc(F)cc4)c(C)nn3c2C)cc1 | i | -10%
COc1ccc(-c2noc(-c3ccc(NCc4ccccc4OC)c([N+](=O)[O-])c3)n2)cc1 | -5% | 4%
COc1ccc(C(CC(=O)c2ccc(C)cc2)Nc2ccc([N+](=O)[O-])cc2)cc1 (stereo unspecified) | -7% | -15%
CCn1c(=O)c2sccc2n2c(CCCC(=O)N3CCN(c4ccccn4)CC3)nnc12 | 0% | -16%
O=C(Nc1ccc(C(=O)N2CCCC2)cc1)C1CC1 | i | -12%
O=C(NNC(=O)C1CC1)c1ccc(F)cc1F | i | -3%
Cc1cccc(N(NC(=O)C(C)(C)O)C(=O)c2ccccc2)c1 | nt | -3%
O=C(CCN1C(=O)c2ccccc2C1=O)Nc1cc(F)ccc1F | -19% | -13%
Cc1c(NC(=O)c2noc3c2CCc2ccccc2-3)c(=O)n(-c2ccccc2)n1C | 11% | 2%
O=C(CSc1nnc(-c2ccco2)n1CC1CCCO1)N1CCCCC1 (stereo unspecified) | -8% | -9%
Cc1cc(NC(=O)COC(=O)C(C)Oc2ccc(Cl)cc2Cl)no1 (stereo unspecified) | -9% | -11%
COc1ccc(/C(N)=N/OC(=O)C2CCC(=O)N2S(=O)(=O)c2ccc(C)cc2)cc1OC (stereo unspecified) | i | -18%
Nc1ccc(S(=O)(=O)c2cc(O)c3ccccc3c2O)cc1 | i | 3%
CCCCOC(=O)c1cccc(NC(=O)CC)c1 | -7% | -12%
COc1cc(NC(=O)CN2C(=O)NC(C)(CC(C)C)C2=O)cc(OC)c1 (stereo unspecified) | i | -14%
Cc1cccc(OCCNC(=O)CCNS(=O)(=O)c2ccc3ccccc3c2)c1 | -19% | -13%
Cc1ccc2oc(=O)c3cnn(CC(=O)N4CCCCCC4)c3c2c1 | -8% | 9%
O=C(O)c1sccc1S(=O)(=O)N1CCCCC1 | 0% | -2%
CSCCNC(=O)c1cccc(Cl)c1 | i | -12%
CC(=O)/C(=N/Nc1cccc(Cl)c1)N1CCOCC1 | -11% | -17%
COCCN(C(=O)COC(=O)C1(C)CC1(Cl)Cl)c1c(N)n(Cc2ccccc2)c(=O)[nH]c1=O (stereo unspecified) | i | -14%
COc1ccccc1N(CC(O)CN1CCCC1)S(=O)(=O)c1ccccc1 (stereo unspecified) | -24% | 6%
CSc1nc(C)c2c(n1)N(c1ccc(C(F)(F)F)cc1)CC2 | nt | 7%
Oc1c(Cl)cc(Cl)cc1C=Nc1ccc(N2CCOCC2)cc1 | -9% | -7%
COC(=O)c1ccc(Cn2nnc3ccccc3c2=O)o1 | -14% | -12%
O=S(=O)(c1cnc[nH]1)N1CCN(c2ccc(F)cc2)CC1 | -23% | -10%
Cc1ccc(C(=O)NCCC2=CCCCC2)cc1S(=O)(=O)N1CCCCC1 | ? | -26%
Cc1cc(C)c(S(=O)(=O)N2CCOC2CNC(=O)C(=O)NCc2cccnc2)c(C)c1 (stereo unspecified) | i | -5%

In the list so far, six have bromine:
molecule | Vaccinia mCherry | Vaccinia Venus
Fc1ccc(CNCc2ccc(Br)cc2)cc1 | i | -20%
O=C(NCc1ccccc1)c1ccc(CNS(=O)(=O)c2ccc(Br)cc2)cc1 | -13% | -9%
O=C1c2ccccc2/C(=C\c2ccc(Br)s2)N1c1ccccc1 | -22% | -19%
O=C(NNC(=O)c1ccc(Cl)nc1)c1ccc(Br)cc1 | -18% | 0%
CCCn1nnnc1NC(=O)COc1ccc(Br)cc1 | i | 2%
CCN1CCN(C(=S)NC(=O)c2cccc(Br)c2)CC1 | -9% | -11%

Remaining list, next part.
molecule | Vaccinia mCherry | Vaccinia Venus
CCn1cc(C2=NCCO2)c2ccccc21 | 10µM* | ?
CCCOc1ccc(N2CC(C(=O)Nc3ccccc3F)CC2=O)cc1 (stereo unspecified) | nt | -11%
Cc1cccc(Nc2nc(-c3cccs3)cs2)n1 | -20%[1.46 µM] | ?
CC(CN)CC(=O)O (stereo unspecified) | -1% | -7%
Cc1ccccc1OCCC(=O)OCC(=O)NCCc1ccccc1 | i | -14%
CN1Cc2c(N3CCOCC3)nc3sc(C#N)c(N)c3c2CC1(C)C | -5% | -8%
COc1ccc(-c2noc(-c3nnn(-c4ccc(C(C)C)cc4)c3C)n2)cc1OC | -15% | -16%
Cc1ccc(C)c(S(=O)(=O)N2CCCOC2CNC(=O)C(=O)NCc2ccco2)c1 (stereo unspecified) | ? | -21%
COc1ccccc1N1CCN(C(=O)c2cc(S(=O)(=O)N3CCCCC3)ccc2C)CC1 | -21% | -7%

Screens from PubChem.
